Screening data (PubChem)
Anaer choline gr: inhibitors of anaerobic choline-dependent gram-negative bacterial growth; calls only; Gram-negative bacterium anaerobic choline minimal medium, absorbance growth; hits give low values; many inactives read as strong as hits in the columns shown; 55,000 tested, 0.2% active;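 active = growth z-score on choline under -2 at 7 or 20 h with little or no fall on glycerol, limits in tiers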;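 also: stock transfer was 300 nL into about 50 µL; the organism is E. coli; final concentration not given here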
Anaer choline gr early: second read-out of Anaer choline gr, no call of its own (marks repeat the call); z-score; measured here: choline growth z-score, timepoint 1;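 score of optical density at 7 h as mean of two plates; lower means less growth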
* marks the source's active call; other numbers are inactive results; i = inactive; & = joins results of further samples.

Preview, 7 compounds:
item	SMILES	Anaer choline gr early	Anaer choline gr
1	CCOC(=O)c1cc2ccsc2n1CC(=O)Nc1ccc(Cl)cc1F	1.5	i
2	COc1cc(C2CC(=O)Nc3c2cnn3-c2ccc3nnc(C)n3n2)ccc1OCC(C)C (stereo not given)	-0.59	i
3	Cc1ccc(-c2ccc(-n3nc(C)c(S(=O)(=O)NCC(C)C)c3C)nn2)cc1	0.43	i
4	O=C(Cc1csc(NC(=O)c2ccccc2)n1)Nc1ccc2c(c1)OCCO2	1.2	i
5	Cc1cccc(-c2nccc(Oc3ccc(C(=O)Nc4ccccc4)cc3)n2)c1	1.8	i
6	CCOc1ccc(NC(=O)C2CCN(c3c(N4CCCC4)c(=O)c3=O)CC2)cc1	0.48	i
7	Cc1cccc(-c2cnc(N3CCC(C(=O)NCCC(C)C)CC3)nc2)c1	0.16	i

All compounds of this part, previewed entries included:
item	SMILES	Anaer choline gr early	Anaer choline gr
1	CCOC(=O)c1cc2ccsc2n1CC(=O)Nc1ccc(Cl)cc1F	1.5	i
2	COc1cc(C2CC(=O)Nc3c2cnn3-c2ccc3nnc(C)n3n2)ccc1OCC(C)C (stereo not given)	-0.59	i
3	Cc1ccc(-c2ccc(-n3nc(C)c(S(=O)(=O)NCC(C)C)c3C)nn2)cc1	0.43	i
4	O=C(Cc1csc(NC(=O)c2ccccc2)n1)Nc1ccc2c(c1)OCCO2	1.2	i
5	Cc1cccc(-c2nccc(Oc3ccc(C(=O)Nc4ccccc4)cc3)n2)c1	1.8	i
6	CCOc1ccc(NC(=O)C2CCN(c3c(N4CCCC4)c(=O)c3=O)CC2)cc1	0.48	i
7	Cc1cccc(-c2cnc(N3CCC(C(=O)NCCC(C)C)CC3)nc2)c1	0.16	i
8	COc1ccccc1NC(=O)Cn1nc2c3sc(N(C)C)nc3ncn2c1=O	-0.39	i
9	COCC(=O)N1CCC(Oc2cc(N3CCCC3)ncn2)C1 (stereo not given)	0.29	i
10	Cn1c(=O)[nH]c(=O)c2c1nc(N1CCCCC1)n2CCO	0.57	i
11	CC(=O)Nc1ccc2c(c1)nc1n2CCN(C(C)C)C1	0.09	i
12	COc1ccc(-n2c(SCC(=O)c3ccc(C)cc3)nc3cc(C(=O)NC(C)C)ccc3c2=O)cc1	0.33	i
13	CCCCCCCCCCCCCCCC(=O)C1=C(O)C(CO)OC1=O (stereo not given)	0.42	i
14	Cc1ccc(N2CCN(S(=O)(=O)c3cc(-c4cc(C)no4)cs3)CC2)c(C)c1	0.32	i
15	Cc1ccc(C)c(-c2cc(-c3nc(-c4ccccc4Br)no3)[nH]n2)c1	0.69	i
16	CC(C)CCN1C(=O)c2ccccc2CC1(C)C(=O)NC1CCCCC1 (stereo not given)	0.61	i
17	CCOC(=O)CC1C(=O)NCCN1Cc1ccc(C)cc1 (stereo not given)	-0.65	i
18	CN(C)c1cccc(-c2nn3c(-c4ccccn4)nnc3s2)c1	0.21	i
19	CCc1ccccc1NS(=O)(=O)c1cc(C(=O)N2CCCC2)cs1	0.55	i
20	Cc1ccc(COC2CN(S(=O)(=O)c3ccccc3)C2)cc1	0.35	i
21	CC1CCN(S(=O)(=O)c2cccn(Cc3ccccc3)c2=O)CC1	0.47	i
22	COc1ccc(-c2cn3c(n2)sc2cc(C(=O)N4CCCC(C)C4)ccc23)cc1 (stereo not given)	1.6	i
23	COc1cc(OC)cc(C(=O)Nc2nnc(Cc3nc4ccccc4[nH]3)s2)c1	-0.51	i
24	Cc1ccc(CN2CCN(C3CCN(S(=O)(=O)c4ccc(CC(C)C)cc4)CC3)C(=O)C2=O)cc1	0.44	i
25	Brc1cccc(-c2noc(CSc3ccc(-c4ccccc4)nn3)n2)c1	0.01	i
26	Cc1cccc(-n2ncc(C(=O)c3ccccc3)c2N)c1	-0.09	i
27	N#C/C(=C\c1ccc(O)c(O)c1)C(=O)c1ccc(O)c(O)c1	-0.06	i
28	CCCS(=O)(=O)N1CCC(c2cnn(-c3ccccc3)c2)CC1	-0.02	i
29	C=CCn1nnc(NCc2ccc(-c3cccc(Cl)c3)o2)n1	-0.21	i
30	c1csc(-c2csc3ncnc(NC4CCCC4)c23)c1	1.1	i
31	O=C(NC1CCCC1)C1CCN(C(=O)c2cccn2-c2cccnc2)CC1	-0.6	i
32	CCn1c(CN2CCN(C)CC2)nc2cc(NC(=O)C(C)C)ccc21	-0.32	i
33	C=CCN(c1nc2nc(C)cc(C)n2n1)S(=O)(=O)c1ccc(C)cc1	-0.25	i
34	O=C(CN1C(=O)CCCc2ccccc21)N1CCN(c2ccccn2)CC1	-0.76	i
35	CN(C)c1ncncc1N1CCC(C(=O)NC2CCCCC2)CC1	0.12	i
36	CCOc1ccc(NC(=O)C2CCN(c3cc(Oc4ccc(CC)cc4)ncn3)CC2)cc1	1.2	i
37	CCCC(O)c1nc2ccccc2n1CCCCOc1cccc(OC)c1 (stereo not given)	-1.1	i
38	COc1ccc(-c2nc(Cn3nnc(-c4nc(-c5ccc(OC)c(OC)c5)no4)c3C)c(C)o2)cc1	-0.41	i
39	CN1CCCC(CC2c3ccccc3Sc3ccccc32)C1 (stereo not given)	-1.1	i
40	COc1ccc(NC(=O)CN2C(=O)C(C)(C)c3ccccc32)c(OC)c1	-0.68	i
41	CCSc1nnc(-c2nn(C)c3c2CN(S(=O)(=O)c2ccc(F)c(Cl)c2)CC3)n1C	0.68	i
42	O=C(c1cccnc1)N1CCN(c2ccc(=O)n(-c3ccc(F)cc3)n2)CC1	-0.65	i
43	CCc1nc(-c2cc(S(=O)(=O)NCC(=O)NC3CCCC3)c(C)s2)no1	0.92	i
44	O=S(=O)(NCCc1c[nH]c2ncccc12)c1ccc(F)cc1	-0.07	i
45	O=C(c1cc(C2CC2)[nH]n1)N1CCN(c2ccc(N3CCOCC3)nn2)CC1	0.3	i
46	COc1ccc(C)cc1NC(=O)CSc1nc2c(sc3ncccc32)c(=O)n1Cc1ccc(F)cc1	0.19	i
47	C[N+](C)(C)CC(O)CC(=O)O (stereo not given)	0.37	i
48	CCCn1nnc2cc(S(=O)(=O)N3CCCC(C(=O)NCc4ccc5c(c4)OCO5)C3)ccc21 (stereo not given)	-0.26	i
49	CCCCC(=O)NCC1(N2CCOCC2)CCCCC1	0.19	i
50	O=C(CSc1nc2ccccc2nc1Cc1ccc(Cl)cc1)N1CCCCC1	1.3	i

(listing goes on)
item	SMILES	Anaer choline gr early	Anaer choline gr
51	CC(C)C(=O)N1c2ccccc2NC2=C(C(=O)CC(C)(C)C2)C1c1ccc(F)cc1 (stereo not given)	-0.92	i
52	CN(Cc1ccccc1)S(=O)(=O)c1cc(-c2ccc(=O)[nH]n2)ccc1Cl	-0.64	i
53	Cc1cc(N2CCOCC2)n2nc(CN3CCN(c4ccccc4)CC3)nc2n1	0.9	i
54	CCN(CC)c1cccc(OC(=O)c2cc3c(C)nn(-c4ccccc4)c3s2)c1	1	i
55	CC(C)NC(=O)N1CCCC1c1ccc(F)cc1 (stereo not given)	0.06	i
56	CCN(c1ccc(OC)cc1)S(=O)(=O)c1cc(-c2cc(C)no2)cs1	2.2	i
57	O=c1n(Cc2ccc(F)cc2)nc2c(S(=O)(=O)N3CCCC3)cccn12	0.34	i
58	NC(N)=NCCNS(=O)(=O)c1cccc2cnccc12	0.52	i
59	Cc1nn(-c2ccc(-c3ccccc3)nn2)c(C)c1S(=O)(=O)N1CCN(C)CC1	0.68	i
60	O=S(=O)(c1ccccc1)c1ccc(NCCc2c[nH]c3ccccc23)nn1	0.6	i
61	Cc1ccc(NC(=O)c2cccc(N(C)C)c2)cc1NC(=O)c1ccc(O)cc1	1.5&0.64	i
62	CC1CCN(C(=O)C2CCN(c3cc(-c4cccc(F)c4)ncn3)CC2)CC1	-0.67	i
63	COc1cccc(-c2csc(-c3nnn(-c4ccc(Cl)cc4)c3N)n2)c1	-0.3	i
64	CCOC(=O)CNC(=O)Nc1c(-c2cccnc2)[nH]c2ccccc12	-0.67	i
65	CC(C)n1nnc2cc(S(=O)(=O)N3CCCC(C(=O)N4CCC(C(N)=O)CC4)C3)ccc21 (stereo not given)	-0.9	i
66	CCS(=O)(=O)N1CCCC(C)(C(=O)NCc2ccc(OC)cc2)C1 (stereo not given)	-0.16	i
67	Cc1cc(C(F)(F)F)n2ncc(-c3cccc(Cl)c3)c2n1	0.95	i
68	O=C(O)c1cc(N2CCCC2)ccc1NC(=O)C1CC1	-1.3	i
69	CCc1ccc(NC(=O)Nc2cc(C)c3nc(NC(=O)c4ccccc4)sc3c2)cc1	0.11	i
70	c1ccc(Cc2nnc3sc(-c4cc5ccccc5[nH]4)nn23)cc1	-0.91	i
71	Cc1ccc(C)c(C(=O)N(CCN(C)C)c2nc3ccc(Cl)cc3s2)c1	1.1	i
72	Cc1c(C(=O)NN2CCOCC2)nn(-c2ccc(Cl)cc2Cl)c1-c1ccc(I)cc1	0.95	i
73	CCc1nc(N)nc2c1C(=O)CC(C)(C)C2	0.34	i
74	Cc1nc(SCc2cc(=O)n3ccsc3n2)n[nH]1	-0.36	i
75	c1cc(N2CCSCC2)ncc1-c1noc(CN2CCSCC2)n1	-1.4	i
76	Cc1nn(-c2ccccc2)c(-n2cccc2)c1C(=O)N1CCC(C(=O)NC(C)c2ccccc2)CC1 (stereo not given)	-2.5	i
77	O=C1COc2ccc(S(=O)(=O)NC3CCCC3)cc2N1Cc1noc(C2CCC2)n1	-0.17	i
78	Cc1c2c(nn1-c1ccc(SCc3cccc(F)c3)nn1)CCC2	1.1	i
79	CCN1CCN(C(=O)CCc2c(C)n(C)c3cc(-c4ccccc4C)nn3c2=O)CC1	0.03	i
80	CN1CCN(c2c(F)cc3c(=O)c(C(=O)O)cn(CCF)c3c2F)CC1	-2.2&-2.6	i
81	O=C(O)C1CCN(Cc2cc3ccccc3n2Cc2ccc(Cl)cc2)CC1	0.91	i
82	CCn1nc(SCC(=O)NCc2ccccc2)n2c(=O)c3c(nc12)-c1ccccc1CC3(C)C	1.4	i
83	O=C(Nc1ccc2c(c1)OCCO2)c1cccc(Nc2ncc(-c3ccc(F)cc3)cn2)c1	0.37	i
84	Cc1cc(NS(=O)(=O)c2cc(-c3nc(C(C)(C)C)cs3)cs2)ccc1F	-1.1	i
85	O=C(CN1CCCN(Cc2ccccc2Cl)S1(=O)=O)NCc1ccc(Cl)cc1	0.69	i
86	Cc1sc(C)c(S(=O)(=O)Nc2ccc(F)c(Cl)c2)c1-c1ccno1	-0.33	i
87	CCn1cc(/C=C/c2nc3ccccc3c(=O)n2CCCO)c2ccccc21	0.76	i
88	O=C(NCc1ccc(Br)cc1)C1CCN(c2cc(-c3ccccc3)ncn2)CC1	1.6	i
89	CCOc1cc(C2Nc3ccc(F)cc3[C@H]3OCCC[C@@H]23)cc(Br)c1OC (stereo not given in full)	0.35	i
90	Cc1cccc(CNC2=NCCNC23CCN(S(=O)(=O)c2cc(C)cc(C)c2)CC3)c1	0.02	i
91	CCSc1nc(=O)n(Cc2ccccc2)c2c1CCC2	0.04	i
92	Cc1nc2sccn2c(=O)c1NC(=O)c1ccc2c(c1)OCO2	0.24	i
93	Cc1ccc(Cl)cc1N1CCN(c2c3c(nc4ncnn24)CCCC3)CC1	0.17	i
94	CCc1cc(C2CCCN2C(=O)c2cnn3cc(Br)cnc23)on1 (stereo not given)	-2	i
95	COC(=O)c1ccc(Nc2c(C(=O)N3CCOCC3)cnc3ccccc23)cc1	-1.1	i
96	CCOC(=O)N1CCN(Cc2nc(-c3ccc(N4CCCCC4)nc3)no2)CC1	-0.18	i
97	CCN(CC)S(=O)(=O)N1CCC(C(=O)Nc2cccc(CCc3nc4ccc(C)cc4[nH]3)c2)CC1	0.46	i
98	CC(C)(C)NC(=O)[C@@H]1C[C@@H]2CCCC[C@@H]2CN1C[C@@H](O)[C@H](Cc1ccccc1)NC(=O)[C@H](CC(N)=O)NC(=O)c1ccc2ccccc2n1	0.54	i
99	Cc1noc(C)c1S(=O)(=O)N1CCC(CC(=O)NCc2ccccc2)CC1	0.54	i
100	CC1CCN(CCNc2cc(N(C)C)c3noc4c3c2C(=O)c2ccccc2-4)CC1	0.38	i

Ordered by length of the SMILES (descending): 3 of the compounds above.
item	SMILES	Anaer choline gr early	Anaer choline gr
100	CC1CCN(CCNc2cc(N(C)C)c3noc4c3c2C(=O)c2ccccc2-4)CC1	0.38	i
96	CCOC(=O)N1CCN(Cc2nc(-c3ccc(N4CCCCC4)nc3)no2)CC1	-0.18	i
81	O=C(O)C1CCN(Cc2cc3ccccc3n2Cc2ccc(Cl)cc2)CC1	0.91	i

Additional structures follow.
item	SMILES	Anaer choline gr early	Anaer choline gr
101	O=C(NCCCN1CCC(N2CCCCC2)CC1)c1nc(CS(=O)(=O)c2ccccc2)no1	0.41	i
102	CCN(C)S(=O)(=O)c1ccc2c(c1)C(=O)Nc1ccccc1O2	-0.71	i
103	O=C(Nc1ccc2c(c1)OCO2)N1CCCC1c1ccccc1Cl (stereo not given)	-1.9	i
104	CCOc1ccc(NC(=O)N2CCCC2c2c(C)noc2C)cc1 (stereo not given)	-0.74	i
105	CCCc1cc(Sc2ccc(N(C)C)cc2)n2ncnc2n1	0.41	i
106	CSc1cccc(NC(=O)C2CC(=O)N(c3ccc4c(c3)CCN4C(=O)C3CC3)C2)c1 (stereo not given)	-0.37	i
107	CC1(C)C(=O)N(CC(=O)Nc2ccc(Cl)cc2)c2ccc(S(=O)(=O)N3CCCC3)cc21	0.68	i
108	Cc1ccc(S(=O)(=O)N(CCOc2ccccc2)c2nc3nc(C)c(Cl)c(C)n3n2)cc1	1.2	i
109	CCCNc1cc(C)nc2nc(Cc3ccccc3)nn12	0.31	i
110	CC(C)CCNC(=O)CCCCn1c(=O)c2ccccc2n(CC(=O)NC2CCCC2)c1=O	-1	i
111	COCc1cc(C)nc2sc3c(=O)n(-c4ccccc4C)nnc3c12	1.1	i
112	Cc1nc2cc(-c3ccccc3)nn2c(C)c1CCC(=O)N1CCN(c2ccccn2)CC1	1.7	i
113	CC(=O)N1CCN(c2nc(C)cc(N3CCCC3)n2)CC1	0.12	i

An excerpt. The share of hits here may be higher or lower than overall.
